UUG fidelity = yeast start codon fidelity modulation; S. cerevisiae UUG-firefly luciferase reporter, luminescence/redox ratio; activity score, % at 18.7 µM; 350,000 tested, 0.13% active; AID 602363;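 active = replicate mean at a twofold rise or more, about +100% in these data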;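 note: firefly luciferase made from a UUG start codon reports start codon fidelity; reporter light over untreated wells divided by growth signal over untreated wells; some hits fall short of that in this replicate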
Env fusion inh = inhibitors of HIV Env-mediated cell fusion; HeLa-JRFL Env/CEM21 cell fusion, luciferase; inhibition, % at 12.3 µM; 360,000 tested, 1.1% active; AID 651610;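 active = mean replicate inhibition score of at least 50 and every replicate individually at or above 50; inconclusive = only one of the two criteria met; inactive = mean below 50 and not all replicates reaching 50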;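 note: 0% = plate neutral controls and 100% = maraviroc near 300 nM; one replicate is shown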
* marks the source's active call; other numbers are inactive results; ? = inconclusive; [ ] = remark or other dose. Some of the compounds tested; rates above refer to the full screens.

The line under a structure holds: UUG fidelity, Env fusion inh
C[C@@H]1CN([C@@H](C)CO)C(=O)Cc2cc(N(C)C)ccc2O[C@H]1CN(C)C(=O)Nc1ccc2c(c1)OCO2
    -2, 20[16.7 µM]
C[C@H]1CN([C@@H](C)CO)C(=O)c2cccc(NC(=O)c3nc4ccccc4s3)c2O[C@@H]1CN(C)Cc1ccccc1
    2, -9[16.7 µM]
C[C@H](CO)N1C[C@H](C)[C@@H](CN(C)C(=O)CC2CC2)Oc2ncc(C#CC(C)(C)O)cc2C1=O
    -4, -2[16.7 µM]
C[C@@H]1CN([C@@H](C)CO)C(=O)c2cc(-c3ccccc3)cnc2O[C@@H]1CN(C)C(=O)C1CCCCC1
    -5, 7[16.7 µM]
CCC(=O)N1C[C@@H](C)[C@@H](OC)CN(C)C(=O)c2cc(NC(=O)Nc3ccccc3)ccc2OC[C@@H]1C
    0, 12[16.7 µM]
C[C@@H]1CCCCO[C@H](CN(C)C(=O)NC2CCCCC2)[C@H](C)CN([C@@H](C)CO)C(=O)c2cc(NS(=O)(=O)c3ccccc3)ccc2O1
    0, 5[16.7 µM]
C[C@H](CO)N1C[C@H](C)[C@@H](CN(C)C(=O)c2ccc(F)cc2)Oc2ncc(-c3ccncc3)cc2C1=O
    -12, -20[16.7 µM]
COc1ccc(NC(=O)Nc2ccc3c(c2)C(=O)N([C@H](C)CO)C[C@@H](C)[C@@H](CN(C)Cc2ccc4c(c2)OCO4)OCCCC[C@H](C)O3)cc1
    27, 13[16.7 µM]
C[C@@H]1CCCCO[C@@H](CN(C)Cc2ccccc2)[C@H](C)CN([C@H](C)CO)C(=O)c2cc(NC(=O)Nc3ccccc3)ccc2O1
    12, -13[16.7 µM]
O=C(C[C@@H]1C[C@@H]2c3cc(NS(=O)(=O)c4ccc(F)cc4)ccc3O[C@@H]2[C@@H](CO)O1)NCc1ccc(-c2ccccc2)cc1
    -15, 25[16.7 µM]
O=C(Nc1ccccc1)Nc1ccc2c(c1)[C@@H]1C[C@H](CC(=O)N3CCCCC3)O[C@@H](CO)[C@@H]1O2
    15, ?
C/C=C/c1ccc2c(c1)O[C@@H](CN(C)C(C)=O)[C@H](C)CN([C@@H](C)CO)S2(=O)=O
    8, -4[16.7 µM]
CCCN(C)C[C@@H]1Oc2cc(-c3ccccc3F)ccc2S(=O)(=O)N([C@@H](C)CO)C[C@@H]1C
    0, 3[16.7 µM]
C[C@H]1CN([C@@H](C)CO)S(=O)(=O)c2ccc(-c3ccncc3)cc2O[C@@H]1CN(C)Cc1ccccc1
    1, 9[16.7 µM]
C[C@@H]1CN([C@@H](C)CO)S(=O)(=O)c2ccc(-c3ccc(C(=O)N(C)C)cc3)cc2O[C@@H]1CN(C)C(=O)Nc1ccccc1F
    9, -36[16.7 µM]
CCS(=O)(=O)Nc1ccc2c(c1)C(=O)N(C)[C@H]1CC[C@@H](CC(=O)NC)O[C@H]1CO2
    -7, 6[16.7 µM]
CCCN(C)C[C@H]1Oc2cc(-c3ccccc3OC)ccc2S(=O)(=O)N([C@H](C)CO)C[C@H]1C
    -6, -13[16.7 µM]
C[C@@H]1CN([C@H](C)CO)C(=O)c2cc(/C=C/c3ccccc3)cnc2O[C@@H]1CN(C)Cc1ccc2c(c1)OCO2
    19, 15[16.7 µM]
COc1ccccc1CNC(=O)C[C@@H]1C=C[C@H](NC(=O)CC2CC2)[C@H](CO)O1
    2, -10[16.7 µM]
Cc1ccc(S(=O)(=O)N(C)C[C@H]2OCCCC[C@@H](C)Oc3ccc(NC(=O)NC(C)C)cc3C(=O)N([C@@H](C)CO)C[C@H]2C)cc1
    4, -7[16.7 µM]
O=C(C[C@H]1C=C[C@@H](NC(=O)Nc2ccc(F)cc2)[C@H](CO)O1)NCCN1CCCC1
    4, 13[16.7 µM]
CC(C)NC(=O)N(C)C[C@@H]1Oc2ccc(NS(=O)(=O)c3cccs3)cc2C(=O)N([C@H](C)CO)C[C@@H]1C
    6, -100[16.7 µM]
O=C(C1=C[C@@H](c2ccc(Br)cc2)C[C@@H](OCc2ccc(CO)cc2)O1)N1CCCC1
    3, 2[16.7 µM]
COCC(=O)N(C)C[C@H]1Oc2cc(-c3ccccc3)ccc2S(=O)(=O)N([C@H](C)CO)C[C@H]1C
    -12, -35[16.7 µM]
O=C(NCC[C@H]1CC[C@@H](NS(=O)(=O)c2cccc(F)c2)[C@@H](CO)O1)C1CCOCC1
    -3, 16[16.7 µM]
C[C@@H]1CCCCO[C@@H](CN(C)CC2CCCCC2)[C@@H](C)CN([C@H](C)CO)C(=O)c2cc(NS(=O)(=O)c3ccc(F)cc3)ccc2O1
    -1, -8[16.7 µM]
CNC[C@H]1Oc2ccc(NC(=O)Cc3ccccc3)cc2CC(=O)N([C@H](C)CO)C[C@H]1C
    2, 0[16.7 µM]
CCCC#Cc1cnc2c(c1)C(=O)N([C@H](C)CO)C[C@@H](C)[C@H](CN(C)C(=O)c1ccc(F)cc1)O2
    23, 1[16.7 µM]
CCCN(C)C[C@@H]1Oc2cc(-c3ccccc3)ccc2S(=O)(=O)N([C@@H](C)CO)C[C@@H]1C
    -7, 6[16.7 µM]
COc1cccc(-c2ccc3c(c2)O[C@@H](CN(C)C(=O)c2ccccc2F)[C@H](C)CN([C@H](C)CO)S3(=O)=O)c1
    -2, 10[16.7 µM]
C[C@@H]1CCCCO[C@@H](CN(C)C(=O)Cc2ccccc2)[C@H](C)CN([C@@H](C)CO)C(=O)c2cc(NS(=O)(=O)c3cccs3)ccc2O1
    9, 2[16.7 µM]
COc1ccccc1-c1ccc([C@@H]2[C@H](C#N)N(C(=O)C3CCC3)[C@H]2CO)cc1
    23, -7[16.7 µM]
Cc1noc(C)c1NC(=O)N(C)C[C@@H]1OCCCC[C@H](C)Oc2ccc(NC(=O)Nc3ccccc3)cc2C(=O)N([C@H](C)CO)C[C@@H]1C
    -11, -39[16.7 µM]
CCCC#Cc1ccc([C@@H]2[C@@H](C#N)N(S(=O)(=O)c3cccc(F)c3)[C@H]2CO)cc1
    5, -15[16.7 µM]
CNC[C@H]1Oc2cc(C#CC3CCCC3)ccc2S(=O)(=O)N([C@@H](C)CO)C[C@H]1C
    -2, -55[16.7 µM]
C[C@@H]1CCCCO[C@@H](CN(C)C(=O)Nc2ccc(F)cc2)[C@H](C)CN([C@H](C)CO)C(=O)c2cc(NS(=O)(=O)c3cccs3)ccc2O1
    -2, -140[16.7 µM]
C[C@]12C=CC(=O)N1CCc1c2[nH]c2ccccc12
    -2, -8[16.7 µM]
COc1ccc(NC(=O)N(C)C[C@H]2Oc3ccc(NC(=O)Nc4cccc5ccccc45)cc3C(=O)N([C@H](C)CO)C[C@@H]2C)cc1
    -4, 23[16.7 µM]
Cc1ccc(-c2ccc3c(c2)O[C@H](CN(C)C)[C@H](C)CN([C@@H](C)CO)S3(=O)=O)cc1
    -1, -27[16.7 µM]
C[C@H](CO)N1C[C@H](C)[C@H](CN(C)S(=O)(=O)c2cccs2)Oc2ncc(C#CCN(C)C)cc2C1=O
    18, -10[16.7 µM]

Part of the list above, set out differently:
Compound	UUG fidelity	Env fusion inh
CCCC#Cc1cnc2c(c1)C(=O)N([C@H](C)CO)C[C@@H](C)[C@H](CN(C)C(=O)c1ccc(F)cc1)O2	23	1[16.7 µM]
CCCN(C)C[C@@H]1Oc2cc(-c3ccccc3)ccc2S(=O)(=O)N([C@@H](C)CO)C[C@@H]1C	-7	6[16.7 µM]
COc1cccc(-c2ccc3c(c2)O[C@@H](CN(C)C(=O)c2ccccc2F)[C@H](C)CN([C@H](C)CO)S3(=O)=O)c1	-2	10[16.7 µM]
C[C@@H]1CCCCO[C@@H](CN(C)C(=O)Cc2ccccc2)[C@H](C)CN([C@@H](C)CO)C(=O)c2cc(NS(=O)(=O)c3cccs3)ccc2O1	9	2[16.7 µM]
COc1ccccc1-c1ccc([C@@H]2[C@H](C#N)N(C(=O)C3CCC3)[C@H]2CO)cc1	23	-7[16.7 µM]
Cc1noc(C)c1NC(=O)N(C)C[C@@H]1OCCCC[C@H](C)Oc2ccc(NC(=O)Nc3ccccc3)cc2C(=O)N([C@H](C)CO)C[C@@H]1C	-11	-39[16.7 µM]

The listing continues.
The line under a structure holds: UUG fidelity, Env fusion inh
Cc1ccc(S(=O)(=O)N(C)C[C@H]2Oc3c(NS(=O)(=O)c4ccccc4)cccc3C(=O)N([C@@H](C)CO)C[C@H]2C)cc1
    -4, -24[16.7 µM]
CCCC#Cc1cnc2c(c1)C(=O)N([C@@H](C)CO)C[C@H](C)[C@@H](CN(C)C(=O)CN1CCOCC1)O2
    -12, -4[16.7 µM]
O=C(Nc1ccc(Cl)cc1)N[C@H]1CC[C@@H](CCNC(=O)c2ccccc2F)O[C@@H]1CO
    4, -2[16.7 µM]
CCCN(C)C[C@H]1Oc2ncc(-c3cccc(C(=O)N(C)C)c3)cc2C(=O)N([C@H](C)CO)C[C@@H]1C
    1, -40[16.7 µM]
C[C@H]1CN([C@@H](C)CO)S(=O)(=O)c2ccc(-c3ccncc3)cc2O[C@H]1CN(C)C
    -20, -16[16.7 µM]
C[C@H](CO)N1C[C@H](C)[C@H](CN(C)CC2CCOCC2)Oc2cc(C#Cc3ccccc3F)ccc2S1(=O)=O
    9, 14[16.7 µM]
CC(=O)N(C)C[C@H]1Oc2ncc(-c3ccc(C)cc3)cc2C(=O)N([C@@H](C)CO)C[C@@H]1C
    -3, -5[16.7 µM]
CNC(=O)C[C@@H]1CC[C@@H]2[C@@H](COc3ccc(NC(=O)Nc4cccc(Cl)c4)cc3C(=O)N2C)O1
    17, 18[16.7 µM]
CC(=O)N(C)C[C@@H]1Oc2ncc(/C=C/c3ccccc3)cc2C(=O)N([C@@H](C)CO)C[C@@H]1C
    -8, 14[16.7 µM]
O=C(Cc1ccccn1)NCC[C@@H]1CC[C@H](NS(=O)(=O)c2ccc(F)cc2)[C@@H](CO)O1
    2, 11[16.7 µM]
C[C@H](CO)N1C[C@H](C)[C@H](CN(C)S(=O)(=O)c2ccccc2)Oc2ncc(C#CC3CCCCC3)cc2C1=O
    -4, 39[16.7 µM]
Cc1noc(C)c1NC(=O)N(C)C[C@@H]1Oc2ccc(NC(=O)Nc3ccccc3)cc2CC(=O)N([C@H](C)CO)C[C@@H]1C
    0, -4[16.7 µM]
O=C(C[C@@H]1C[C@@H]2c3cc(NC(=O)C4CCOCC4)ccc3O[C@@H]2[C@@H](CO)O1)NCc1ccccc1
    3, 46[16.7 µM]
C[C@@H]1CN([C@@H](C)CO)S(=O)(=O)c2ccc(C#Cc3ccccc3F)cc2O[C@@H]1CN(C)CC1CCOCC1
    -12, 33[16.7 µM]
C[C@@H]1CCCCO[C@H](CN(C)C(=O)Nc2ccccc2)[C@@H](C)CN([C@@H](C)CO)C(=O)c2cc(NC(=O)CCC(F)(F)F)ccc2O1
    5, -97[16.7 µM]
C[C@H](CO)N1C[C@H](C)[C@H](CN(C)C(=O)Nc2cc(F)ccc2F)Oc2cc(-c3ccc(C#N)cc3)ccc2S1(=O)=O
    -10, 5[16.7 µM]
O=C(C[C@H]1C=C[C@H](NC(=O)C2CCC2)[C@@H](CO)O1)NCc1ccccc1Cl
    -9, -7[16.7 µM]
C[C@H](CO)N1C[C@H](C)[C@@H](CN(C)S(=O)(=O)c2cccs2)Oc2ncc(C#CCC3CCCC3)cc2C1=O
    1, 16[16.7 µM]
C[C@H](CO)N1C[C@H](C)[C@@H](CN(C)C(=O)Nc2cccc3ccccc23)OCCCC[C@H](C)Oc2ccc(NS(=O)(=O)c3ccccc3)cc2C1=O
    -4, 32[16.7 µM]
COc1ccc(C#Cc2cnc3c(c2)C(=O)N([C@H](C)CO)C[C@H](C)[C@@H](CN(C)CC2CCOCC2)O3)cc1
    15, 9[16.7 µM]
O=C(C[C@@H]1CC[C@H]2[C@@H](COC[C@@H](O)CN2S(=O)(=O)c2cccc(Cl)c2)O1)N1CCCCC1
    -1, 0[16.7 µM]
O=C(C[C@H]1CC[C@@H](NC(=O)c2ccccn2)[C@@H](CO)O1)NCc1cccc(F)c1
    3, -19[16.7 µM]
COc1ccc(NC(=O)Nc2ccc3c(c2)C(=O)N([C@@H](C)CO)C[C@H](C)[C@H](CN(C)S(=O)(=O)c2ccccc2)O3)cc1
    -1, ?
COc1ccc(CN(C)C[C@H]2OCCCC[C@@H](C)Oc3ccc(NS(=O)(=O)c4cn(C)cn4)cc3C(=O)N([C@@H](C)CO)C[C@@H]2C)cc1
    5, 0[16.7 µM]
COc1ccc(NC(=O)Nc2ccc3c(c2)C(=O)N([C@H](C)CO)C[C@@H](C)[C@H](CN(C)S(=O)(=O)c2ccc(F)cc2)OCCCC[C@@H](C)O3)cc1
    -19, 23[16.7 µM]
COc1ccc(S(=O)(=O)N[C@@H]2CC[C@H](CC(=O)NCc3ccccc3F)O[C@@H]2CO)cc1
    -4, -28[16.7 µM]
C[C@H](CO)N1C[C@H](C)[C@@H](CN(C)CC2CCCC2)Oc2cc(Br)ccc2S1(=O)=O
    8, 9[16.7 µM]
C[C@H]1CN([C@@H](C)CO)C(=O)c2cc(NC(=O)Cc3ccccc3)ccc2O[C@H]1CN(C)CC1CC1
    3, 9[16.7 µM]
Cc1ccc(-c2cnc3c(c2)C(=O)N([C@@H](C)CO)C[C@H](C)[C@@H](CN(C)C(=O)c2cccnc2)O3)cc1
    -17, -10[16.7 µM]
COc1ccccc1S(=O)(=O)N[C@H]1CC[C@@H](CCNC(=O)C2CC2)O[C@@H]1CO
    0, -22[16.7 µM]

Compound activity from PubChem BioAssay.
